# AID504770 – E. coli YBA685 growth inhibition, screen for V. cholerae RctB inhibitors; E. coli YBA685 rctB-dependent plasmid, OD600 growth, 3 h; stronger effect = lower value; z-score (no concentration beside the values); 0.27% of 130,000 active;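 active = z-score under -2 on both plates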;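 also: wells of about 30 µL received 100 nL stock; score is relative to mean and SD of the test wells; the first replicate is given; strong numbers were not always called active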
# CapD inh – blocks the Bacillus anthracis CapD enzyme; purified CapD enzyme, fluorescence intensity read-out; stronger effect = lower value; some hits fall short of the stated cut; AID 492967; 0.23% of 140,000 active; z-score (concentration not given with the values);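 active = z-score under -4 in either of two replicates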;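 also: stock transfer was 100 nL into about 40 µL; score is relative to mean and spread of the plate; one replicate is shown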
# An asterisk follows results filed as active; · = not tested or not shown; & = joins results of further samples. This is a subset, so the mix of outcomes need not match the whole.
# Values run as follows: CapD inh | AID504770
CC1C=CCC2C(=O)N(c3ccc(C(=O)OCC(=O)c4ccc(Cl)cc4)cc3)C(=O)C12 (stereo not given)
→ 0.085 | ·
Cc1cccc(C)c1NC(=O)C1NC(=O)CC1c1ccccc1 (stereo not given)
→ 15 | -1.3
CCOC(=O)C1C(=O)C=C(c2ccc(F)cc2)CC1c1ccc(CC)cc1 (stereo not given)
→ 41.5 | -1.05
CCN1C(=O)CC(C(=O)Nc2ccccc2OC)SC1=Nc1cccc(C(F)(F)F)c1 (stereo not given)
→ 0 | ·
COC(=O)c1sccc1N=CC1=C(O)CC(C)(C)CC1=O
→ · | -0.05
CC(C)n1nc(C(=O)Oc2ccc3c(c2)OCO3)c2ccccc2c1=O
→ · | 1.25
Cc1ccc(NS(=O)(=O)c2ccc(Cl)cc2)c(N=Cc2cc(Cl)cc(Cl)c2O)c1
→ -0.525 | ·
CCCc1ccc(C(=O)NC(=O)c2ccccc2O)cc1
→ -0.82 | -0.5
O=S(=O)(Nc1ccccn1)c1cccs1
→ · | -0.8
N#CC1=C(N)C(C#N)(C#N)C(c2ccco2)C2CCCC=C12 (stereo not given)
→ 0.495 | -1.1
N=C1/C(=C/c2ccc(F)cc2)C(=O)N=C2SC(C(F)(F)F)=NN12
→ 7.21 | -0.15
Cc1ccc(C)n1-c1ccc(C(F)(F)F)cc1
→ 0.675 | ·
CCc1ccc(N=CC23c4ccccc4C(c4ccccc42)C2C(=O)N(c4ccccc4Cl)C(=O)C23)cc1 (stereo not given)
→ -0.27 | ·
NC(Cc1c[nH]c2ccccc12)C(=O)O (stereo not given)
→ -2.48 | 0.6&-0.3
COc1cc(/C=c2\sc3nc4ccccc4n3c2=O)ccc1OCc1ccccc1F
→ 1.08 | ·
CCOC1CC(C)(C)NC(=S)N1 (stereo not given)
→ -0.17 | -0.45
O=C(CN1CCCCCCC1)N/N=C/c1ccccc1C(F)(F)F
→ 0.025 | -0.75
O=C(c1ccc(N2CCCC2=O)cc1)N1CCCC1
→ 0.72 | 0.25
COCC(C)N1CC(C(=O)O)CC1=O (stereo not given)
→ · | -0.75
Ic1ccc2[nH]ccc2c1
→ 0.285 | ·

# Record cards, as listed above. Order of screens: CapD inh	AID504770
# `CCOC1CC(C)(C)NC(=S)N1` (stereo not given) reads -0.17	-0.45
# `Cc1cccc(C)c1NC(=O)C1NC(=O)CC1c1ccccc1` (stereo not given) reads 15	-1.3
# `N#CC1=C(N)C(C#N)(C#N)C(c2ccco2)C2CCCC=C12` (stereo not given) reads 0.495	-1.1
# `CCOC(=O)C1C(=O)C=C(c2ccc(F)cc2)CC1c1ccc(CC)cc1` (stereo not given) reads 41.5	-1.05
# `NC(Cc1c[nH]c2ccccc12)C(=O)O` (stereo not given) reads -2.48	0.6&-0.3

# (list continues)
# Values run as follows: CapD inh | AID504770
Cc1nn(-c2ccccc2)c(C)c1CN1CCC(NS(=O)(=O)c2ccc(S(C)(=O)=O)cc2)C1 (stereo not given)
→ -0.61 | ·
CCN1/C(=C2/SC(=S)N(C)C2=O)Sc2ccc(S(=O)(=O)C(F)(F)F)cc21
→ · | 0.5
CCSc1nnc(-c2cc(-c3cccs3)nc3ccccc23)o1
→ · | -0.2
CC(Sc1nnc(-c2cccs2)n1-c1ccccc1)C(=O)NCc1ccc2c(c1)OCO2 (stereo not given)
→ · | -0.5
CN(C)C(CNC(=O)c1ccccc1SCC(=O)NCc1ccco1)c1ccccc1 (stereo not given)
→ · | -0.4
Cc1ccc(C2Oc3ccccc3C3=C2C(c2ccc(N(C)C)cc2)n2ncnc2N3)cc1 (stereo not given)
→ 0.005 | ·
CN1CCC(N)CC1
→ · | -2.9
Cc1cc2cc(CNC(=O)Nc3cccc(Cl)c3)ccc2n1C
→ 2.92 | 0
O=C(Nc1ccccc1)c1cccn(Cc2ccc(C(F)(F)F)cc2)c1=O
→ -0.5 | ·
COc1ccc(-n2ncc3c2ncn2nc(-c4ccccc4)nc32)cc1
→ 3.54 | -1.4
CCOc1ccc(/C=N/C2=C(C#N)C3CCCCC3S2)cc1OC (stereo not given)
→ · | 0.8
Cc1noc(C)c1C(=O)Oc1ccc(-c2n[nH]nc2C#N)cc1
→ 0.12 | -0.5
CCCOc1cccc(NC(=O)c2occc2C)c1
→ 0.07 | 0.05
Cc1ccc(CS(=O)Cc2ccc(C(=O)NCc3ccccc3)o2)cc1 (stereo not given)
→ 0.74 | -0.7
O=C(CSc1nnc(Cc2ccsc2)o1)c1ccccc1
→ -0.11 | 0.65
O=C(COC(=O)C1CC(=O)N(Cc2ccccc2)C1)Nc1ccc(SC(F)F)cc1 (stereo not given)
→ · | 1.65
O=C(Nc1ccc(Br)cc1)c1cc(S(=O)(=O)N2CCN(c3ccccc3F)CC2)ccc1F
→ -0.08 | ·
CCN(CC)C(=O)CC1(CC(=O)N(CC)CC)C(=O)N(C)C(=O)N(C)C1=O
→ · | -0.5
CCN(CC)S(=O)(=O)c1ccc(CNC(=O)c2ccc[nH]2)cc1
→ · | -2.8
CCOC(=O)c1c(NC(=O)NC(C)(C)C)sc2c1CCN(C)C2
→ 12.4 | 0.35
CC1=[N+](S(=O)(=O)c2ccc(Cl)cc2)CCN1
→ 0.065 | 1.4
Cc1sc2nc(CCl)[nH]c(=O)c2c1-c1ccccc1
→ -0.265 | 0.5
FC(F)(F)C(F)(F)C1=NC(C(F)(F)F)(C(F)(F)F)N=C(c2cc(Cl)cc(Cl)c2)O1
→ -0.295 | ·
COc1cccc2c1Oc1ncccc1N(c1ccc(C(=O)NCCN(C)C)s1)C2
→ 16.7 | -0.5
N#Cc1c(-c2cccc(Br)c2)c(C#N)c2nc3ccccc3n2c1N
→ 0.36 | ·
CC(C)CC(=O)Nc1ccc2nc(SCc3cc(=O)n4ccsc4n3)sc2c1
→ -0.335 | 1.05
COC(=O)c1ccc(N2C(=O)CC(NCc3ccc(OC)c(OC)c3)C2=O)cc1 (stereo not given)
→ 0.095 | ·
NC(=O)c1ccccc1NCC(=O)c1ccc(Cl)cc1
→ 37.2 | -2.25*
Cc1cc(-c2ccsc2)cc(C)n1
→ 3.33 | ·
CC1CCCCN1C(=O)c1ccc(C(=O)N2CCCCC2C)cc1 (stereo not given)
→ -0.055 | 1.15
CC1CC(C)CN(C(=O)COC(=O)c2ccc(N3CCCC3=O)cc2)C1 (stereo not given)
→ · | -1.05
CC(=O)OC1CC(C)(C)N(C(C)=O)C(C)(C)C1
→ 0.315 | 1.15
Cc1noc(C)c1S(=O)(=O)NC1CCCC1
→ 0.355 | 0.3
CN(C)S(=O)(=O)c1ccc(C(=O)Nc2c3c(nn2-c2ccccc2)CSC3)cc1
→ · | 2.85
C=C(C)C1CC=C(C)/C(=N\NC(=O)c2ccc(O)cc2)C1 (stereo not given)
→ 0.145 | -0.8
O=C(Nc1nc(-c2ccc(OC(F)(F)F)cc2)no1)NN1CCCCC1
→ 10.6 | -0.15
CC(C)N(C(=O)CSc1nnnn1-c1ccccc1)C(C)C
→ · | -0.15
O=C1CCCC2=C1C(c1ccc(-c3ccccc3)cc1)Nc1ccc3ncccc3c12 (stereo not given)
→ 3.33 | ·
FC(F)(F)c1cccc(NNC(=S)Nc2ccccc2)c1
→ -0.275 | ·
CC1CCN(S(=O)(=O)c2ccc3c(c2)CCN3C(=O)NCc2ccccc2)CC1
→ 0.445 | -0.95
C=CCN1CCN(C(c2ccccc2Cl)c2nnnn2C2CCCCC2)CC1 (stereo not given)
→ · | -0.5
COc1ccc(Nc2nc(NN)nc(OCC(F)(F)F)n2)cc1
→ 0.16 | ·
O=C(NCC(F)(F)F)c1cccnc1Nc1cccc(C(F)(F)F)c1
→ · | -0.3
O=C(Nc1ccc(Cl)cc1)N1CCC(c2nc3ccccc3s2)CC1
→ 0.48 | ·
COc1ccc(COCC(O)CN(C)Cc2ccc3c(c2)OCCO3)cc1 (stereo not given)
→ · | 1.15
O=C(Nc1ccnn1Cc1cccs1)C(Sc1ccccc1)c1ccccc1 (stereo not given)
→ · | -0.7
Cc1nc(C(F)(F)F)c(-c2ncn[nH]2)s1
→ -0.165 | -0.7
O=C(Nc1ccc(Cl)cc1)c1cnn2c(C(F)(F)F)cc(C(F)(F)F)nc12
→ 0.39 | -3.8
CC(C1CC1)N(C(=O)c1ccccc1)c1ccccc1 (stereo not given)
→ 0.625 | 0.55
Cc1ccccc1C(=O)N1CCC(C(=O)Oc2ccc3c(c2)OCO3)CC1
→ · | 0
CNC(=O)CNC(=O)Nc1ccc(C)cc1
→ · | -0.15
COc1cccc(CN2c3cccc4cccc(c34)S2(=O)=O)c1
→ 16.5 | 1.8
CCN(CC)C(=O)CN1CCC(c2nc3ccccc3[nH]2)CC1
→ · | -1.55
NNC(=O)CN1C(=O)CSc2ccc(C(F)(F)F)cc21
→ 0.265 | ·
COc1ccc(C(=O)Cn2c(SC)nc3ccccc32)cc1
→ -0.14 | 0.55
CCCCCCCc1nnc(NC(=O)c2cccs2)s1
→ · | -0.65
Cc1nc(C)c(S(=O)(=O)NCc2ccc3c(c2)CCO3)s1
→ 0.12 | -0.15
CC(C)C(NS(=O)(=O)c1ccccc1)C(=O)NC1CCCC1 (stereo not given)
→ 0.485 | -0.35
COc1cc(OC)nc(CCC(=O)O)n1
→ -0.355 | ·
CN(C)c1ccc(-c2nc3ccc4ccccc4c3c3c2CCC3)cc1
→ 1.25 | -0.75

# Next section
# Values run as follows: CapD inh | AID504770
CC1Oc2c(C(=O)O)cccc2C1C (stereo not given)
→ · | -0.3
CN(C)Cc1ccc(C(=O)O)o1
→ · | 0
O=C(CSc1nc2c(c(=O)[nH]1)CN(Cc1ccccc1)CC2)NCc1ccccc1
→ 5.47 | -0.9
COc1ccccc1N(C)S(=O)(=O)c1ccc(C(=O)N2CC(C)OC(C)C2)cc1 (stereo not given)
→ · | 0.4
Cc1nc(-c2ccccc2)sc1C(=O)Nc1cccc(-c2cn3ccccc3n2)c1
→ -0.445 | ·
CCNC(=S)N/N=C/c1ccc(C#N)cc1
→ · | 0.4
CCC(=O)Nc1sc2c(c1C(=O)Nc1cccc(Cl)c1)CCC2
→ 0.825 | ·
CCCCn1c(SCC(=O)c2cc(C)n(C)c2C)nc2cc(S(N)(=O)=O)ccc21
→ · | 0.15
CC(C)CN(CC(C)C)Cn1nc(-c2cccc(S(=O)(=O)N3CCOCC3)c2)oc1=S
→ · | -1.4
CN(C)S(=O)(=O)c1ccc(NCC(=O)Nc2ccc(SC(F)F)cc2)cc1
→ · | -0.15
CCC1COC(C)CN1 (stereo not given)
→ · | -0.5
O=C(NCc1ccc2c(c1)OCO2)Oc1ccccc1
→ -0.145 | -0.3
CCOC(=O)c1[nH]c2ccc(F)cc2c1NC(=O)CNc1nccs1
→ 15.6 | ·
O=C1c2ccccc2-c2ccc(-c3nc(-c4ccc(O)c(O)c4)[nH]c3-c3ccccc3)cc21
→ -0.225 | ·
CC(OC(=O)c1ccc2ccccc2n1)C(=O)N(C)c1ccccc1 (stereo not given)
→ · | -0.55
Cc1ccccc1N/C(SCc1cccc(Br)c1)=C(/C#N)C(=O)NCc1ccco1
→ 0.015 | ·
CC1(C)CC(NS(=O)(=O)c2ccc(S(=O)(=O)N3CCOCC3)cc2)CCO1 (stereo not given)
→ · | 0.6
CSCCOC(=O)C1=C(C)NC(=O)NC1c1cccc(OCc2ccccc2)c1 (stereo not given)
→ 0.07 | ·
CCOC(=O)c1cnc(-c2cccs2)nc1Nc1ccc(C)cc1
→ 9.92 | 1.15
Cc1nc2ccc(NC(=O)c3ccc(Br)cc3)cc2s1
→ 1.28 | ·
CC1Cc2cc(S(=O)(=O)NCCC(=O)Nc3ccc(F)cc3F)ccc2N1C(=O)C1CC1 (stereo not given)
→ 0.15 | -0.8
COc1cc(CCNC(=O)OCC2CC=CCC2)cc(OC)c1 (stereo not given)
→ 0.595 | ·
NC(=S)NCc1ccncc1
→ 0.3 | ·
Cc1ccccc1N1C(=O)C(Cc2ccccc2)N=C1N(CCCN1CCOCC1)Cc1ccco1 (stereo not given)
→ 3.15 | -0.5
CN(C(=O)COC(=O)c1n[nH]c2ccccc12)c1ccccc1
→ 0.625 | -0.6
S=C(SCc1ncon1)N1CCOCC1
→ 1.08 | -0.75
S=c1nc2ccccc2c2nc(COc3ccccc3Br)[nH]n12
→ -1.79 | 0.4
Cc1ccc(OS(=O)(=O)c2cc(C(F)(F)F)cc(C(F)(F)F)c2)c([N+](=O)[O-])n1
→ -1.09 | ·
CC(C)COc1ccccc1C(=O)NC(CO)C(=O)O (stereo not given)
→ · | 0.45
O=C(Cc1noc2ccccc12)N1CCCC1
→ -1.58 | -0.6
O=C(c1ccccc1)c1nnn(-c2ccccc2)c1Nc1ccccc1
→ -0.625 | 0.45
N#CC1=C(N)N(c2sc3c(c2C#N)CCCCC3)C2=C(C(=O)CCC2)C1c1ccccc1 (stereo not given)
→ -0.495 | -0.05
CCOC(=O)c1cc2ccc(OC)c(OC)c2c(=O)s1
→ 1.52 | 0.25
COC(=O)CSc1nc(N2CCOCC2)c2c(c1C#N)CC(C)(C)SC2
→ 0.965 | 0
CCOc1ccc(NC2=CC(=O)CC(C)(C)C2)cc1
→ -2.42 | -1.3
COc1ccc2c(CC(=O)OCC(=O)c3ccccc3)coc2c1
→ · | 1.1
COC(=O)Cc1nc(NC(=O)c2cc(C)oc2C(F)(F)F)sc1C
→ 0.015 | -0.35
CC1CN(C(=O)Nc2ccc(Cl)cc2)c2ccccc2O1 (stereo not given)
→ 8.82 | -0.45
CCOC(=O)CC(=O)CSc1nc2c(sc(=S)n2-c2ccccc2)c(=O)[nH]1
→ -1.1 | ·
CCN(CC)c1nc2nonc2nc1Nc1cccc(Br)c1
→ -0.155 | ·
CCCCOc1ccc(C2C(N3C(=O)c4c(Cl)c(Cl)c(Cl)c(Cl)c4C3=O)C(=O)N2c2ccc(C)c(Cl)c2)cc1 (stereo not given)
→ -0.63 | ·

# Two neighbouring records already listed:
# Values run as follows: CapD inh | AID504770
CCN(CC)c1nc2nonc2nc1Nc1cccc(Br)c1
→ -0.155 | ·
CCCCOc1ccc(C2C(N3C(=O)c4c(Cl)c(Cl)c(Cl)c(Cl)c4C3=O)C(=O)N2c2ccc(C)c(Cl)c2)cc1 (stereo not given)
→ -0.63 | ·
